T cruzi repl: T. cruzi replication inhibition | 300,000 tested, 1.4% active | T. cruzi beta-gal in NIH3T3, luminescence, 90 h | inhibition, % (concentration not given with the values) | AID 1885;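 active = mean inhibition across valid replicates above about 55%, limit read from the data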;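 also: signal also drops with host cell toxicity which is not excluded here; 0% = plate median of DMSO wells and 100% = zero luminescence signal; higher percent means less beta-gal luminescence so fewer parasites; stock transfer was 50 nL into about 50 µL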
UCH37 inh: inhibitors of human deubiquitinating enzyme UCH37 | Q9Y5K5 | purified proteasome/UCH37, Ub-AMC cleavage fluorescence | inhibition, % (concentration not given with the values) | 330,000 tested, 0.33% active | AID 588478;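 active = mean of two replicates above 20%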;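 also: 0% = compound-free wells with enzyme and 100% = wells lacking proteasome; stock transfer was 100 nL into about 20 µL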
Target sequence (Q9Y5K5 whole entry, looked up): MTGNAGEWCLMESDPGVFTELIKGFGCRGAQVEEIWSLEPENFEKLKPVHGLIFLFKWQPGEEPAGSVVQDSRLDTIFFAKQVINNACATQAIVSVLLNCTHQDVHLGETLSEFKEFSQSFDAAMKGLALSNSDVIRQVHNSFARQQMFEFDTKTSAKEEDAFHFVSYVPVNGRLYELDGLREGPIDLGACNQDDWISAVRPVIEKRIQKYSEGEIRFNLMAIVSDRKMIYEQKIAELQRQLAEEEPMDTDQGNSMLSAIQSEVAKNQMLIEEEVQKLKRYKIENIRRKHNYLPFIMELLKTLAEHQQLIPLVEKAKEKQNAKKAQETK
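system = Proteasome-associated human UCH37 deubiquitinase | amount = 0.15 nM proteasome as dispensed | medium = pH 7.4 Tris-HCl (50 mM) with ovalbumin, ATP-MgCl2, DTT | incubation = 30 min preincubation with enzyme, 25 min cleavage at room temperature | detection = AMC fluorescence 355/460 nm | read-out basis = percent inhibition | controls = no-proteasome and no-compound wells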
Ecoli rRNA inh: selective bacterial rRNA inhibition in E. coli; 350,000 tested, 1.6% active; E. coli WT GFP vs humanized-ribosome RFP mutants, fluorescence, 24 h; hits give low values; DMSO median 0, no signal -100; GFP signal change (wild-type ribosome), % (test concentration not listed);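 active = significant combined selectivity score with lowered wild-type GFP, culture density cut under 30%, mutant RFP and density less affected; inactive = any of these conditions unmet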; also: one replicate is shown; some compounds called inactive have numbers as strong as hits
Bfl-1 A1 inh: inhibitors of the anti-apoptotic protein A1, read as caspase activation; MEF A1-2A-BIM cells, Caspase-Glo 3/7 luminescence, 3 h; percent of clofoctol response, vehicle zero; caspase activation, % (concentration not given with the values); 330,000 tested, 0.066% active; AID 2462;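 active = over half of replicate activation scores above 10%, or exactly half above 10 with the replicate mean above 10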;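 also: wells of about 30 µL received 50 nL stock; many hits fall short of the cut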
MLL AF4-AF9 inh: MLL-AF4/AF9 protein interaction inhibition | AlphaScreen, biotin-AF4 peptide binding to FLAG-AF9 | 350,000 tested, 0.47% active | P42568 | inhibition, % at 10 µM;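 active = every replicate reaching a set inhibition limit, whatever the replicate mean, cut at about 25% in these data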;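 also: 0% = plate neutral control median and 100% = total signal loss; the record names both 10 and 1 µM as test concentration; the first replicate is given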
Target sequence (P42568 whole entry, looked up): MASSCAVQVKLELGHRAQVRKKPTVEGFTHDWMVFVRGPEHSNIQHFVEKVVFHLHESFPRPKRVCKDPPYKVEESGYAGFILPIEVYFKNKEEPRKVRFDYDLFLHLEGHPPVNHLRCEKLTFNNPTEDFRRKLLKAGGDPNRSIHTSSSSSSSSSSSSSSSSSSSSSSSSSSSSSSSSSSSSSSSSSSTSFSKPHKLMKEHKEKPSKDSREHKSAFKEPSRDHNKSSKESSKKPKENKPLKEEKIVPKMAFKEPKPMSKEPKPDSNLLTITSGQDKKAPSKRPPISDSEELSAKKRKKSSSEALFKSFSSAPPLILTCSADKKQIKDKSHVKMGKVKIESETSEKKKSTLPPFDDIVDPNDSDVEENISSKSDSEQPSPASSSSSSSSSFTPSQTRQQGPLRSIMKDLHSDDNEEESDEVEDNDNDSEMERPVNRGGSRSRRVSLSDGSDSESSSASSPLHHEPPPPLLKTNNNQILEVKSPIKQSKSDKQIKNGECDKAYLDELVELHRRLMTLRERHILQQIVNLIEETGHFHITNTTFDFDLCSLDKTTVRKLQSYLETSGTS
Ecoli growth: blocks Escherichia coli growth. OD600, 23 h; hits give low values. OD600 absorbance (test concentration not listed). 330,000 tested, 0.21% active;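 active = OD600 absorbance below the run mean of sample wells minus 3.6 SD, in any replicate, cut at about 0.56 in these data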;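 also: stock transfer was 300 nL into about 60 µL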
Beta cell apopt: blocks beta cell apoptosis | INS-1E cytokine-induced death, ATP luminescence, 48 h; percent of positive-control rescue, neutral wells zero | protection from apoptosis, % (no concentration beside the values) | 300,000 tested, 0.8% active;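 active = all replicates at 75% or more, or half of them and the mean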;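 also: 0% = cytokine-treated negative control wells and 100% = positive control rescue; higher means more ATP so stronger rescue from cytokine killing; wells of about 40 µL received 100 nL stock; the first replicate is given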
FGF22 binding: binders of recombinant human FGF22 by thermal shift; 340,000 tested, 1.5% active; SYPRO orange fluorescence; percent of sucrose octasulfate shift, DMSO zero; calls only at 9.99 µM; Q9HCT0;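 active = melting point raised past a set limit in the mean and every replicate; three in four hits are not shown here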
Target sequence (Q9HCT0 whole entry, looked up): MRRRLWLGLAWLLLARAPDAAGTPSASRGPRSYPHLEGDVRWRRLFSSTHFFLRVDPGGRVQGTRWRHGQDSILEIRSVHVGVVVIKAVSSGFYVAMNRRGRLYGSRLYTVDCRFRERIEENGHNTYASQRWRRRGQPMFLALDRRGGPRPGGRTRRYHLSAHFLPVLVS
Ecoli rRNA inh OD600: further read-out of Ecoli rRNA inh, marked with its call; OD600 change, %; measured here: OD600 growth;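 optical density of the mix in the first replicate; 0 = DMSO median and -100 = no signal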
Ecoli rRNA inh RFP: recorded beside Ecoli rRNA inh, whose call it bears; RFP signal change, %; measured here: RFP humanized mutant strains;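 first replicate; 0 = DMSO median and -100 = no signal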
* hit, by the source's call; i = inactive; · = not tested or not shown. An excerpt; count on the stated rates, not on these rows.

SMILES	T cruzi repl	UCH37 inh	Ecoli rRNA inh	Ecoli rRNA inh OD600	Ecoli rRNA inh RFP	Bfl-1 A1 inh	MLL AF4-AF9 inh	Ecoli growth	Beta cell apopt	FGF22 binding
CCc1cccc(C)c1NC(=O)CN1C(=O)NC(C)(CCC(C)C)C1=O (centres undefined)	·	2.8	-2.1	6.6	-2.1	0.4	-2.1	0.669	-0.7	i
O=C(NC1CCS(=O)(=O)C1)c1cccc(Br)c1 (centres undefined)	-3.1	2.0	2.1	13.3	-1.7	1.7	-1.6	0.653	-6.3	i
COc1ccc(NC(=O)CCSc2nc(C)cs2)cc1	-5.5	1.3	-2.6	-1.3	-10.3	-0.2	-1.9	0.601	-3.6	i
O=C(Nc1ccccc1Cl)C1CC(=O)N(c2ccccc2)C1 (centres undefined)	-9.9	6.5	5.1	7.3	0.2	-0.1	·	0.65	-1.3	i
CCN(CC)C(=O)[C@H]1C[C@H](CC(=O)NCCCOC)C(=O)N2CCc3c([nH]c4cc(-c5ccco5)ccc34)[C@]12C	·	-18.0	15.6	17.6	2.9	·	7.0	0.673	·	i
CC(C(=O)NCc1ccc(F)cc1)n1ccc2cc(S(=O)(=O)N3CCCC3)ccc21 (centres undefined)	0.5	1.0	-0.6	-7.8	3.2	-0.2	0.2	0.59	-4.2	i
CC1CCc2sc(-c3n[nH]c(=S)o3)cc2C1 (centres undefined)	12.7	-414.4	-32.4	-55.6	-0.3	-0.7	-0.1	0.652	-2.9	i
Cn1c(=O)[nH]c(=O)c2c1nc(SCC(=O)O)n2CCc1ccccc1	-5.5	0.1	·	·	·	0.3	·	0.732	-2.6	·
CCc1ccc(NC(=O)C2CCC(CNC(=O)[C@@H]3Cc4ccccc4CN3)CC2)cc1 (some centres undefined)	2.6	2.7	-2.5	-0.6	5.4	-0.3	2.5	0.676	-6.5	i
Cc1ccccc1Cn1cc(S(=O)(=O)CC(=O)Nc2nccs2)c2ccccc21	9.0	3.0	·	·	·	1.4	·	0.666	3.3	·
CCCN(C(=O)Cc1coc2cc(C)c(C)cc12)c1c(N)n(Cc2ccccc2)c(=O)[nH]c1=O	-6.5	0.9	5.3	11.0	3.0	-0.6	2.2	0.668	1.5	i
CCC1CCCCN1C(=O)c1ccc2c(c1)C(=O)N(c1ccc(C)cc1)C2=O (centres undefined)	-11.3	0.9	3.9	2.3	-1.5	-1.0	2.6	0.673	0.9	i
Cc1cc(CN(C)Cc2ccc(OCC(O)CN(C)Cc3ccccc3)cc2)on1 (centres undefined)	25.3	3.0	-1.6	-9.5	-1.0	0.5	3.7	0.704	-1.5	i
CCN1C(=O)[C@H]2[C@@H](c3ccc(-c4ccc(C(C)=O)cc4)cc3)N3CCCC[C@@]3(C(=O)OC)[C@H]2C1=O	21.6	5.4	-14.9	-5.7	-6.7	-0.2	·	·	12.6	i
O=C(NCC(=O)N(c1ccccc1)C(C(=O)NC1CCCCC1)c1cccnc1)c1ccco1 (centres undefined)	-4.5	4.0	7.5	15.2	-1.6	0.3	-0.1	0.686	-3.8	i
O=C1CN(C(=O)COC(=O)CCC(=O)c2ccc3c(c2)OCCO3)c2ccccc2N1	-7.9	0.2	·	·	·	-0.2	·	0.704	-0.1	·
O=C(Nc1ccc(N2CCOCC2)c(Cl)c1)c1ccc(F)cc1	-10.8	1.6	-9.1	-6.4	-1.5	-2.8	6.7	0.609	-1.1	i
C/C(=N\NC(=O)Cn1cc([N+](=O)[O-])cn1)c1ccco1	-4.0	·	3.9	8.7	1.1	-1.1	·	·	-3.9	i
O=C(O)C1C2C=CC(C2)C1C(=O)NCc1ccc(Cl)c(Cl)c1 (centres undefined)	9.9	3.4	-53.2	-78.7	-30.6	0.2	1.1	0.71	-2.3	i
COc1ccc(C(=O)C2CCCN(Cc3cnc(N4CCOCC4)s3)C2)c(OC)c1 (centres undefined)	61.3*	2.8	19.9	20.2	2.2	0.4	1.5	0.696	-8.2	i
Cc1nn(CC(=O)NCc2ccc(OC(C)C)cc2)c(=O)c2cc3occc3n12	4.2	3.5	·	·	·	1.0	·	0.698	1.3	·
O=C(O)CCSc1nc2ccccc2n1-c1ccccc1	1.6	4.2	-23.7*	-6.0*	-3.6*	0.0	-0.2	0.693	19.9	i
CC(C)(C)Cc1nnc(NC(=O)CCc2ccccc2)s1	-7.7	3.9	19.2	17.8	3.5	0.6	-2.6	0.709	·	i
CC(C)(C)c1ccc(C(=O)c2c[nH]c(C(=O)NCc3ccco3)c2)cc1	3.8	0.5	·	·	·	0.9	·	0.773	28.4	·
COc1cccc(NC(=O)CN(C)C(=O)CNC(=O)c2ccccc2F)c1	-3.0	3.5	-13.3	-10.1	0.5	0.9	0.2	0.661	-3.3	i
CC1CN(C2=N/C(=C/c3ccc4c(c3)OCO4)C(=O)N2)CC(C)O1 (centres undefined)	-5.3	3.3	6.6	7.3	-2.2	0.4	1.4	0.709	-1.0	i
O=C(N/C(=C\c1cccc(Br)c1)C(=O)N1CCOCC1)c1ccco1	-16.3	1.8	3.3	5.7	-0.9	0.8	-1.3	0.665	2.1	i
COc1c(C)cc(C(=O)C2CCCN(S(=O)(=O)N(C)C)C2)cc1C (centres undefined)	3.4	-1.6	-3.5	-7.4	1.3	-0.2	-2.8	0.662	-7.5	i
COc1ccc(CC(=O)NCc2n[nH]c(=S)n2-c2ccc(Br)cc2)cc1	-10.1	3.0	-1.3	-2.6	1.1	0.0	-8.7	0.667	-1.8	·
CC1CC(=S)Nc2ccccc2N1Cc1ccccc1 (centres undefined)	-36.2	-1.8	·	·	·	-1.0	·	0.69	-6.1	·

Record cards (already shown). Order of values: T cruzi repl | UCH37 inh | Ecoli rRNA inh | Ecoli rRNA inh OD600 | Ecoli rRNA inh RFP | Bfl-1 A1 inh | MLL AF4-AF9 inh | Ecoli growth | Beta cell apopt | FGF22 binding
Entry for O=C(O)CCSc1nc2ccccc2n1-c1ccccc1 = 1.6 | 4.2 | -23.7* | -6.0* | -3.6* | 0.0 | -0.2 | 0.693 | 19.9 | i
Entry for COc1ccc(CC(=O)NCc2n[nH]c(=S)n2-c2ccc(Br)cc2)cc1 = -10.1 | 3.0 | -1.3 | -2.6 | 1.1 | 0.0 | -8.7 | 0.667 | -1.8 | ·

Remaining list, next part
SMILES	T cruzi repl	UCH37 inh	Ecoli rRNA inh	Ecoli rRNA inh OD600	Ecoli rRNA inh RFP	Bfl-1 A1 inh	MLL AF4-AF9 inh	Ecoli growth	Beta cell apopt	FGF22 binding
COc1ccc(/C=N/NC(=O)Cn2cnc3c2c(=O)n(C)c(=O)n3C)cc1	-2.0	·	6.6	-15.6	-1.8	0.0	2.1	·	-4.2	i
C/C(CC(=O)NCc1ccccc1)=N\NC(N)=S	-19.7	·	8.7	14.6	1.0	1.4	-5.3	·	8.9	·
C1=C(c2ccccc2)CCN(c2nc3ccccc3n3cnnc23)C1	-7.0	-6.3	3.7	6.2	0.2	0.3	-1.5	0.786	-2.8	i
Cc1cc(C)c(NC(=O)C2CC(=O)N(C3CCCC3)C2)c(C)c1 (centres undefined)	·	0.7	2.3	-1.2	0.2	-0.5	-5.3	0.674	4.4	i
Cc1ccc(NC(=S)NCc2cccs2)c(C)c1	-12.6	0.3	·	·	·	-1.4	·	0.711	-2.5	·
CC(CNCC1CCCO1)COc1ccccc1 (centres undefined)	-4.9	0.0	·	·	·	-0.2	·	0.733	·	·
CC(C)Cc1ccc(S(=O)(=O)N2CCN(c3ccccn3)CC2)cc1	-19.0	-0.6	16.1	10.1	4.5	0.5	-0.7	0.68	0.5	i
COc1ccccc1Cn1c(SCC(N)=O)nc2c(oc3ccccc32)c1=O	·	-3.5	0.0	7.4	-1.3	·	-4.4	0.691	·	i
COC(=O)c1ccc(NC(=S)NC2CC3CCC2C3)cc1 (centres undefined)	-13.0	4.7	·	·	·	-0.3	·	0.646	-0.2	·
O=S(=O)(NC1CCSc2ccccc21)c1ccccc1 (centres undefined)	-0.8	3.3	-1.8	-4.5	4.2	-1.3	-2.8	0.698	2.6	i
CCOc1ccc(S(=O)(=O)Nc2cnc3ccccc3c2)cc1	-43.1	-6.8	-2.7	-22.5	1.4	0.5	8.4	0.655	39.2	i
COc1cc(C(=O)OCC(=O)Nc2c(F)cccc2F)cc(OC)c1C	-7.0	0.1	11.0	2.8	0.4	0.0	-1.7	0.7	-1.4	i
NNC(=O)c1ccc([N+](=O)[O-])c(CS(=O)(=O)c2ccc(Cl)cc2)c1	5.6	-1.6	·	·	·	-0.4	·	0.72	2.3	·
CCCCOc1ccc(-c2[nH]ncc2C=O)cc1	-6.2	0.6	·	·	·	-0.5	-1.1	0.688	-13.1	i
Cc1cc(NS(=O)(=O)c2ccc(NS(=O)(=O)c3ccc(CC(C)C)cc3)cc2)nc(C)n1	-10.9	2.5	-32.9	-39.7	-7.0	-1.3	-2.5	0.686	-3.5	i
C=C[C@@H]1c2ccccc2N(S(=O)(=O)c2ccc(C)cc2)[C@H](c2ccc(C(F)(F)F)cc2)C1(C#N)C#N	·	3.8	3.9	0.5	-2.4	0.3	0.6	·	15.7	i
CCCCc1ccc(NC(=O)CSc2nc(=O)n(CCCN3CCOCC3)c3c2CCC3)cc1	-4.3	6.2	-58.8	-81.0	-18.8	-0.2	0.8	0.635	·	i
O=C1CCN(c2ccccc2)N1	·	5.1	-0.6	12.9	-1.2	·	-2.6	0.71	·	i
N/C(=N/OC(=O)c1cccc([N+](=O)[O-])c1)c1cccc([N+](=O)[O-])c1	-0.9	·	5.4	8.8	-1.1	-0.5	-1.0	·	-7.1	i
CCOC(=O)c1nnn(-c2ccccc2C#N)c1C	-6.3	2.2	·	·	·	-0.4	·	0.642	-11.8	·
CC(C)(C)NNC(=S)Nc1cccc(F)c1	-9.8	4.2	12.3	2.4	0.2	-0.4	-1.1	0.668	-4.3	i
CC(C)[C@H](NC(=O)OCc1ccccc1)C(=O)NCc1ccccc1	-3.5	·	6.1	12.2	4.2	0.1	-3.2	·	-2.8	i
COc1ccc2c(c1)C(c1ccc(C)o1)=NNC(c1ccccc1)=N2	-21.7	7.0	-4.9	-0.9	-0.6	-0.2	7.3	0.698	-3.5	i
CCOC(=O)C1CCN(C(=O)C2CCC(=O)N(Cc3cccc(C(F)(F)F)c3)C2)CC1 (centres undefined)	10.5	4.3	-1.1	0.9	-2.1	-0.5	-0.9	0.686	-9.2	i
O=C(Nc1nc2ccccc2[nH]1)c1ccc(F)c(S(=O)(=O)N2CCOCC2)c1	-1.9	4.9	-7.5	-11.5	-4.1	-2.0	5.7	0.729	6.9	i
O=C1CCC(=O)N1OCCCOc1ccc2c(c1)CCC2	2.5	8.1	·	·	·	-0.3	·	0.776	1.7	·
CCN1CCN(S(=O)(=O)c2ccc(C(C)(C)C)cc2)CC1	17.5	1.3	14.9	8.0	2.5	-0.1	1.2	0.663	-0.5	i

Source: PubChem
